Assay outcomes deposited in PubChem BioAssay by National Center for Advancing Translational Sciences (NCATS).
PINK1 expr mod = PINK1 expression modulation. PINK1 immunofluorescence, high-content cytometry, 24 h. Potency, µM (doses to about 76.6 µM), for inactives: at the highest dose activation (PINK1 increase), most hits filed as activators. 410,000 compounds, 0.2% hits. AID 624263; active = well fitted activation curve with a large enough effect; inconclusive = small, poorly fitted or top-dose-only effect; inactive = flat fitted curve, though single readings scatter; cell line not stated here;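 further: % of control where 0% means no effect; nearly all actives have a fitted effect of over 65% in size; a mitochondrial uncoupler was the plate control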
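A stable cell line was treated with compounds at 5 concentrations for 24 hours, with CCCP as control. PINK1 levels and mitochondrial localization were measured by immunofluorescence with mitochondrial, cell and nuclear markers after fixation, read by laser-scanning cytometry.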
Numbers without * were called inactive; ? = inconclusive. Potency means the concentration at half of the fitted maximal effect. Not all compounds are listed (hit frequency here may not be typical).

Preview, seven compounds:
PINK1 expr mod	compound
2.7%	Cc1cnc(C)c(-c2ccc(F)c3c2OC(CNC(=O)/C=C/c2cccs2)C3)n1 (stereo not given)
3.2%	Cc1ccc(NS(=O)(=O)c2cc3c(cc2Br)NC(=O)CO3)cc1C
2.6%	COc1cc(-c2cnc3ccccc3c2)cc2c1OCCN(C(=O)CCn1nc(C)cc1C)C2
2.7%	CN1CCN(c2ncc3nc(-c4ccc(Cl)cc4)c(=O)n(Cc4cccs4)c3n2)CC1
1.5%	Cn1cccc1C(=O)N1CCC2(CCCN(C(c3ccccc3)c3ccccc3)C2)CC1
0.0%	OCC(O)C(O)C(O)CO (stereo not given)
1.1%	Cc1cnc(-n2ncc(C(=O)NCCc3ccncc3)c2-c2cccs2)nc1-c1ccc(F)cc1

This part in full, from the start:
PINK1 expr mod	compound
2.7%	Cc1cnc(C)c(-c2ccc(F)c3c2OC(CNC(=O)/C=C/c2cccs2)C3)n1 (stereo not given)
3.2%	Cc1ccc(NS(=O)(=O)c2cc3c(cc2Br)NC(=O)CO3)cc1C
2.6%	COc1cc(-c2cnc3ccccc3c2)cc2c1OCCN(C(=O)CCn1nc(C)cc1C)C2
2.7%	CN1CCN(c2ncc3nc(-c4ccc(Cl)cc4)c(=O)n(Cc4cccs4)c3n2)CC1
1.5%	Cn1cccc1C(=O)N1CCC2(CCCN(C(c3ccccc3)c3ccccc3)C2)CC1
0.0%	OCC(O)C(O)C(O)CO (stereo not given)
1.1%	Cc1cnc(-n2ncc(C(=O)NCCc3ccncc3)c2-c2cccs2)nc1-c1ccc(F)cc1
3.7%	COc1ccc2[nH]cc(CCNc3cc(-c4ccc5c(c4)OCO5)ncn3)c2c1
-0.5%	c1ccc(-c2ccc(N3CC[C@@]4(CCCNC4)C3)cc2)cc1
0.2%	C#CCCCCCCCCCCCc1ccco1
0.1%	CN1CCCN(C(=O)[C@@H]2C[C@@H](Sc3nc4ccccc4[nH]3)CN2Cc2ccc(OC(F)(F)F)cc2)CC1
0.4%	c1ccc(CN(Cc2ccccc2)Cc2nnc(-c3cc4ccccc4[nH]3)s2)cc1
1.3%	COc1cccc(-c2cncnc2NCCN2CCOCC2)c1
-0.3%	Cc1ccccc1CN1CCc2nnc(C(C)NC(=O)c3cc(F)ccc3F)n2CC1 (stereo not given)
-0.4%	Nc1nc(O)c2ncn([C@H]3CC[C@@H](CO)O3)c2n1
0.4%	O=S(=O)(c1ccccc1)N1CCC2(CCN(Cc3ccccc3)CC2)CC1
2.7%	CS(=O)(=O)Nc1cccc(-c2ccc3ncnc(Nc4ccc(F)cc4)c3c2)c1
-0.8%	COCC(=O)Nc1cc(C(=O)N2CCOc3ccccc3C2)cc2nc(-c3cccnc3)n(C)c12
0.2%	O=c1c(-c2ccccc2)nc2cncnc2n1-c1ccccc1
11%	COc1cccc(-c2cncnc2NCc2cccc(C)c2)c1

Arranged by SMILES length (low to high): some entries from above
PINK1 expr mod	compound
1.3%	COc1cccc(-c2cncnc2NCCN2CCOCC2)c1
3.7%	COc1ccc2[nH]cc(CCNc3cc(-c4ccc5c(c4)OCO5)ncn3)c2c1
0.4%	c1ccc(CN(Cc2ccccc2)Cc2nnc(-c3cc4ccccc4[nH]3)s2)cc1

(further entries)
PINK1 expr mod	compound
0.1%	Cc1noc(C)c1-c1ccc2ncnc(NCCN3CCOCC3)c2c1
-0.7%	COC(=O)C1CCCCN1Cc1ccc2c(c1)CN(C(=O)c1cc(C)nc3cc(F)ccc13)CCO2 (stereo not given)
-0.1%	COC(=O)c1cc(CNC(=O)c2ccccc2F)cc(NC(=O)c2ccccc2OC)c1
1.7%	COc1ccccc1C1CN(Cc2c(O)cccc2OC)Cc2ccccc2O1 (stereo not given)
-0.2%	CN1CCN(c2ncncc2-c2ccoc2)CC1
0.3%	COc1cccc(C2(CC(=O)N3CCCCC3CO)CC(=O)N(C)C2=O)c1 (stereo not given)
-1.1%	Cn1nnnc1Sc1ncnc2scc(-c3cccc4c3sc3ccccc34)c12
1.7%	CO[C@H]1[C@H](NC(=O)c2ccsc2)c2ccccc2C12CCN(Cc1ccc3c(c1)OCO3)CC2
-0.4%	COCCn1c(=O)c(-c2ccccc2)nc2cncnc21
0.8%	COCC(=O)Nc1cc(C(=O)NC2Cc3ccccc3C2)cc2nc(-c3cccnc3)n(C)c12
-0.5%	CC(=O)N1CCC2(CCCN(c3ccccn3)C2)CC1
1.1%	Cc1nc2cnc(Nc3ccccc3)nc2n(CCc2ccccc2)c1=O
0.8%	COCCn1c(=O)c(-c2ccc(Cl)cc2)nc2cnc(OC)nc21
0.3%	Cc1nc2cnc(N3CCNCC3)nc2n(C2CC2)c1=O
0.7%	CN(C)c1ccc(-c2nc(-n3ccnc3)c3ccccc3n2)cc1
2.2%	N#Cc1nc(NCC(F)F)nc(Nc2cc(F)cc(F)c2)n1
-0.6%	COc1ccc(C2CC(=O)c3ccc(OC)cc3O2)cc1 (stereo not given)
0.0%	CC(C)(C)OC(=O)NCC(=O)NNC(=O)C(C(=O)OCc1ccccc1)c1ccccc1 (stereo not given)
0.4%	COc1cc(C)c(CN2C[C@H](Sc3ccccn3)C[C@H]2C(=O)N(C)C)cc1C
9.0%	O=c1c(-c2cccs2)nc2cnc(N3CCNCC3)nc2n1CCc1ccccc1

An excerpt of these results, field by field:
COc1cccc(C2(CC(=O)N3CCCCC3CO)CC(=O)N(C)C2=O)c1 (stereo not given)
- PINK1 expr mod: 0.3%
Cn1nnnc1Sc1ncnc2scc(-c3cccc4c3sc3ccccc34)c12
- PINK1 expr mod: -1.1%

Next entries:
PINK1 expr mod	compound
-0.5%	O=C(NCc1nnc2n1CCN(Cc1cc3c(cc1Cl)OCO3)CC2)c1cccc(F)c1
0.2%	Cn1nnnc1Sc1ncnc2scc(-c3ccccc3C(F)(F)F)c12
-0.4%	Cc1ccccc1-c1cncnc1N1CCN(C)CC1
1.6%	COCCn1c(=O)c(-c2ccc(OC)cc2)nc2cnc(Oc3cccc(Cl)c3)nc21
0.3%	CCOc1ccc(CN2CCOc3ccc(C(O)c4cccnc4)cc3C2)cc1 (stereo not given)
0.3%	CC(O)c1cc2c(s1)c1cnn(Cc3ccccc3F)c(=O)c1n2C (stereo not given)
-0.6%	COc1ccc(C(=O)N2CCC3(CCN(C(=O)Nc4cccc(C#N)c4)CC3)CC2)cc1
0.5%	COC(=O)N1CCC2(CCN(C(=O)Nc3cccc(C#N)c3)CC2)CC1
-0.3%	COc1ccc(CN2CCOc3ccc(CN4CCC(O)(c5cccnc5)CC4)cc3C2)c(C)c1C
-0.6%	COC(=O)CCC(C)C1CCC2C3CC[C@H]4CC(O)CC[C@@]4(C)C3CC(O)[C@]12C (stereo not given in full)
-0.6%	CC(=O)OCC1OC(n2cnc3c(Cl)nc(Cl)nc32)C(OC(C)=O)C1OC(C)=O (stereo not given)
2.3%	CC(C)(CNC(=O)c1cnn(-c2nccc(-c3cccs3)n2)c1C1CC1)N1CCOCC1
0.7%	Nc1ccc(C(=O)Oc2ccccc2)c(O)c1
0.2%	C=C1C[C@@]23C[C@@]1(O)CCC2[C@@]12C=CC(O)[C@](C)(C(=O)O1)C2C3C(=O)O (stereo not given in full)
-0.4%	COc1ccc(CN2CCOc3c(O)cc(-c4cc(C)c5ccc(F)cc5n4)cc3C2)c(O)c1
-0.1%	CC(C)c1c(C(=O)N2CCN(CCO)CC2)cnn1-c1nccc(-c2cccs2)n1
1.0%	CC(=O)OC1CCC2C3CCC4=CC(=O)CCC4(C)C3CCC2(C)[C@]1(C)O (stereo not given in full)
-0.4%	CC1(C)OC2C(CO)OC(n3cnc4c(=O)[nH]cnc43)C2O1 (stereo not given)
-0.8%	CCN1CCCC1CNC(=O)c1cnn(-c2nccc(-c3cc(OC)ccc3OC)n2)c1C (stereo not given)
3.4%	COc1ccc(Oc2ncc3nc(-c4cccs4)c(=O)n(-c4ccccc4)c3n2)cc1
0.3%	Cc1nc2cnc(N3CCNCC3)nc2n(CCc2ccccc2)c1=O
1.0%	CNc1ncncc1-c1ccccc1C(F)(F)F
0.1%	CC(C)C(O)c1ccc2c(c1)CN(C(=O)c1ccccc1-n1cccn1)CCO2 (stereo not given)
-0.5%	OCCNc1nc(Nc2ccccc2Cl)nc(N2CCCC2)n1
1.1%	Cc1noc(C)c1-c1nc(Nc2ccncc2)c2ccccc2n1
?	COc1cccc(Nc2ncc3nc(-c4cccs4)c(=O)n(Cc4cccs4)c3n2)c1
-0.6%	Cc1cnc(CNc2ncnc3ccc(-c4ccoc4)cc23)cn1
-0.7%	COc1ccc(C(=O)N2CCC3(CCCN(Cc4nccs4)C3)CC2)cc1
-0.4%	Cc1c(C(=O)N(CCO)C(C)C)cnn1-c1ncc2c(n1)-c1ccccc1CCC2
-0.7%	COc1ccc(F)c(CN2CCC3(CCC(CNC(=O)c4ccn(C)n4)O3)CC2)c1 (stereo not given)
2.2%	COc1cccc(-c2cc3c(c(OC)c2)OCCN(Cc2ccccc2O)C3)n1
-1.1%	Cn1c2cc(Br)sc2c2cnn(Cc3ccc(F)cc3F)c(=O)c21
0.4%	O=C(c1cc(C(F)(F)F)cc(C(F)(F)F)c1)N1CCC2(CCN(Cc3ccccc3)CC2)CC1
0.9%	COc1cc(=O)n2c(c1C(=O)NC(C)c1ccco1)CCN(C(=O)c1cn3ccc(C)cc3n1)CC2 (stereo not given)
1.8%	O=c1c(-c2cc(F)cc(F)c2)nc2cnc(N3CCOCC3)nc2n1-c1ccccc1
-0.6%	Cc1nc2cc(NC(=O)[C@@H]3C[C@@H](Sc4ccccn4)CN3Cc3ccc4c(c3)OCCO4)ccc2s1
0.7%	CCC(=O)N[C@@H]1c2ccccc2C2(CCN(Cc3[nH]c4c(Cl)cccc4c3C)CC2)[C@H]1OC
-1.3%	COc1cc(=O)n2c(c1C(=O)N(C)Cc1nonc1C)CCN(Cc1ccc(C)cc1C)CC2
0.3%	COc1ccc2[nH]cc(CCNc3nc(-c4cccnc4)nc4ccccc34)c2c1
8.7%	COc1cccc(Cn2c(=O)c(-c3cccc(C#N)c3)nc3cnc(N4CCN(C)CC4)nc32)c1
-0.5%	c1cncc(-c2nc(N3CCNCC3)c3ccccc3n2)c1
1.0%	COc1cc(CN2CCCC(n3cc(C(=O)N4CCCCC4)nn3)C2)cc2c1OCO2 (stereo not given)
1.0%	CC1CN(Cc2cccn2-c2ncccn2)Cc2cc(Cl)ccc2O1 (stereo not given)
0.0%	COCC(=O)N1CCC2(CC1)CCN(c1ccccc1)CC2
0.8%	Cc1ncc2c(c1CNC(=O)/C=C/c1cccs1)CCN(C(=O)c1noc3c1CCCC3)C2
6.0%	COc1ccc2[nH]cc(CCNc3ccnc(-c4ccc(N(C)C)cc4)n3)c2c1
1.5%	COc1cccc(Cn2c(=O)c(-c3cc(F)cc(F)c3)nc3cnc(N4CCNCC4)nc32)c1
-0.4%	Cc1nc2cncnc2n(Cc2ccccc2Cl)c1=O
0.1%	Cc1nc2cnc(N(C)C)nc2n(CCc2ccccc2)c1=O
0.9%	Cn1cccc1C(=O)N1CCC2(CCCN(Cc3nccs3)C2)CC1
-0.3%	Cc1cccc(CNc2ncncc2-c2cccc(NS(C)(=O)=O)c2)c1
-0.2%	CN(C)c1ccc(-c2cncnc2NCc2ccccc2)cc1
?	COc1ccc(-c2nc3cnc(N4CCN(C)CC4)nc3n(CCc3ccccc3)c2=O)cc1
-0.4%	Cc1cnc(CNc2cc(-c3cccc(NS(C)(=O)=O)c3)ncn2)cn1
0.2%	Cc1ccc2cc(CNC(C)c3cccc4ccccc34)c(N3CCC(O)CC3)nc2c1 (stereo not given)
23%	CCNc1ncc2nc(-c3cn(C)c4ccccc34)c(=O)n(C[C@H]3CCCO3)c2n1
-0.2%	CSc1ccc2cc(CNCc3ccccc3F)c(N3CCCC(CO)C3)nc2c1 (stereo not given)
-0.2%	O=C(Oc1ccccc1)N1CCC2(CC1)CN(c1ccccn1)C2
0.7%	Cc1noc(C)c1-c1nccc(NC2CC2)n1
-0.2%	Cc1noc(C)c1C(=O)N1CCC2(CC1)CN(c1ccccn1)C2

(list continues)
PINK1 expr mod	compound
0.2%	COc1cccc(Nc2ncc3nc(-c4ccc(Cl)cc4)c(=O)n(C[C@H]4CCCO4)c3n2)c1
1.0%	CC(=O)N1CCC2(CC1)CCN(c1ccccn1)CC2
0.8%	O=C(c1csnn1)N1CCC[C@@]2(CCN(c3ccccc3)C2)C1
-0.3%	COc1ccccc1CN1CC[C@@]2(CCCN(C(=O)c3ccncc3)C2)C1
-1.1%	COc1ccc2[nH]cc(CCNc3nc(-c4ccccc4OC)nc4ccccc34)c2c1
0.2%	Cc1c(C(=O)N2CCN(C)CC2)sc2ncnc(NCC3(c4ccccc4)CCOCC3)c12
-2.3%	C[C@@H]1CCC2[C@@H](C)[C@@H](O)O[C@@H]3O[C@@]4(C)CC[C@@H]1[C@@]23OO4 (stereo not given in full)
-0.7%	COc1ccc(C(=O)N2CCC3(CC2)CN(C(=O)Nc2cccc(C#N)c2)C3)cc1
0.8%	NCCn1c(=O)c(CCc2ccccc2)nc2cncnc21
0.1%	COc1ccccc1-c1nccc(Nc2ccc(F)cc2)n1
-0.4%	COc1ncc2nc(-c3ccc(F)cc3)c(=O)n(Cc3ccc(F)cc3)c2n1
-0.1%	CC(=O)N1CCN(c2ccc(N)cc2)CC1
-0.4%	COCc1ccc(CN2CCOc3c(cc(-c4cc(C)c5cccc(OC)c5n4)cc3OC)C2)o1
0.6%	Cc1oc(-c2ccccc2NC(=O)c2cccnc2)nc1CNC(=O)C1CCCCCN1C (stereo not given)
0.3%	Cc1cnc(CNc2ccnc(-c3cccc(C#N)c3)n2)cn1
10%	Cn1cc(-c2nc3cnc(Oc4ccccc4)nc3n(Cc3cccs3)c2=O)c2ccccc21
-0.5%	O=C(c1ccoc1)N1CCOc2ccc(CN3CCC(Oc4cccnc4)CC3)cc2C1
3.4%	COc1ccccc1CNc1ncncc1-c1ccc2c(c1)OCO2
